GLS inhibitor – inhibitors of human glutaminase (GLS) | O94925 | GLS enzymatic activity, qHTS titration | Potency, µM (top dose mostly 45.5 µM), inactives show top-dose activity change, negative = inhibition, usual class: inhibitors | actives 0.21% (n = 410,000)
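Read-out is an Amplex red fluorescence increase coupled through glutamate oxidase and HRP, measured before and after 30 min room-temperature incubation. hKGA is in 45 mM KH2PO4 (pH 8.2) with 0.02% Tween-20; glutamine added as 1mM solution.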
mIDH1 inhibitor – blocks human mutant IDH1 R132H enzyme | IDH1-R132H enzyme, NADPH consumption, diaphorase/resazurin fluorescence | Potency, µM (highest dose often 76.6 µM), for the others: at the top dose activity change, negative = inhibition, hits mostly inhibitors | actives 0.093% (n = 390,000); also: nearly all actives have a fitted effect of over 65% in size
Target sequence (O75874 whole entry R132H, stated change not applied): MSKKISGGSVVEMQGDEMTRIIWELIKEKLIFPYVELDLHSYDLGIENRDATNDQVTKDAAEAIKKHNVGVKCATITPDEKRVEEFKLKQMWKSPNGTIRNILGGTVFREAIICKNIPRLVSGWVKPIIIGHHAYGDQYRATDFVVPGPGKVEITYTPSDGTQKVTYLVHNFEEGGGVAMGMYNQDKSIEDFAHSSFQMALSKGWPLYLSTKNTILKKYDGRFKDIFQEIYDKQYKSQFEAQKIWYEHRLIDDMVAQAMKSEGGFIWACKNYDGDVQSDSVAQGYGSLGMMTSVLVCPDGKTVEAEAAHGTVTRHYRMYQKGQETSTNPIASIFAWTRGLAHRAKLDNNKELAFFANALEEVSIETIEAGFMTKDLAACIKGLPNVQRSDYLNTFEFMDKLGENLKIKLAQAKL
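IDH1-R132H (0.5 ug/mL dispensed) in pH 7.5 Tris buffer was preincubated 30 min with compound, then given a substrate mix of 0.016 mM NADPH and 2 mM alpha-KG for 80 min at room temperature; remaining NADPH was read by diaphorase/resazurin fluorescence.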
Tb PGK inh – blocks T. brucei phosphoglycerate kinase | P07378 | PGK/GAPDH coupled, Kinase-Glo luminescence, 60 min | Potency, µM (highest dose often 57.5 µM), inactives show top-dose activity change, negative = inhibition, hits mostly inhibitors | actives 0.043% (n = 380,000); also: nearly all actives have a fitted effect of over 60% in size
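Recombinant glycosomal PGK reaction used 1,3-bisphosphoglycerate generated in-well by GAPDH (100nM final) in 100mM TEA pH 7.6, 5mM MgCl2, 0.01% Tween-20. After 60 minutes at room temperature, ATP was read by Kinase-Glo Plus luminescence end-point.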
Pin1 inh – blocks the human prolyl isomerase Pin1; Q13526; Pin1 FP peptide displacement, HiFluor488, 10 min; Potency, µM (series often up to 115 µM), for inactives: at the top dose activity, negative = inhibition, actives largely listed as inhibitors; actives 0.009% (n = 390,000); active = well fitted inhibition curve with a large enough effect in the polarisation, with a control signal flat, not every such curve was filed as active; the % refers to the polarisation
Starred values were filed as active, the others as inactive; [ ] = another dose, or the depositor's remark. Unless noted, calls follow the shape of the dose curve; as a rule, active = well fitted curve in the direction sought with a large enough effect; inconclusive = small, poorly fitted or top-dose-only effect, or another doubt; inactive = no such curve, though single readings can be large; an effect the other way counts as inactive or inconclusive. % is scaled to controls: 0 for no effect and ±100 for the full control effect; potency is read from the fitted curve at half-maximal effect. Only part of the results is shown, so the mix of outcomes need not match the whole.

Short forms: A = GLS inhibitor; B = mIDH1 inhibitor; C = Tb PGK inh; D = Pin1 inh
1. CCC(C)(C)n1nnnc1CN1CCN(c2nc3cc(OC)ccc3cc2C#N)CC1
  A: -4.6%; B: 0.3%; C: -4.4%; D: 35.1%[activator]

2. Cn1c2nc(=O)[nH]c(=O)c-2cc2ccccc21
  A: -7.0%; B: 1.2%; C: -7.6%; D: -14.9%

3. O=C(O)C1=C[C@@H](O)[C@@H](O)[C@H](O)C1
  A: -5.8%; B: -7.9%; C: -8.2%; D: -7.1%

4. CCNC(=O)C1CC(=O)N(CC)C(=Nc2cc(Cl)c(O)c(Cl)c2)S1 (configuration not stated)
  A: -4.4%; B: -6.0%; C: 0.5%; D: -2.4%

5. CCOC(=O)c1ccc(NS(=O)(=O)CC)cc1
  A: 7.6%; B: 6.4%; C: -6.2%; D: 0.7%

6. Cc1sc2ncnc(SCC(=O)N3CCN(C(=O)c4ccco4)CC3)c2c1C
  A: -0.5%; B: 6.8%; C: -2.1%; D: 7.5%

7. CCCC(=O)Nc1ccc(Cl)c(-c2nc3ncccc3o2)c1
  A: -0.8%; B: -11.8%; C: 13.4%; D: 0.7%

8. Cn1ncc(Br)c1C(=O)O
  A: 6.3%; B: 13.7%; C: -7.6%; D: 1.7%

A draw from above in order of formula weight, high to low:
Short forms: A = GLS inhibitor; B = mIDH1 inhibitor; C = Tb PGK inh; D = Pin1 inh
6. Cc1sc2ncnc(SCC(=O)N3CCN(C(=O)c4ccco4)CC3)c2c1C
  A: -0.5%; B: 6.8%; C: -2.1%; D: 7.5%

2. Cn1c2nc(=O)[nH]c(=O)c-2cc2ccccc21
  A: -7.0%; B: 1.2%; C: -7.6%; D: -14.9%

3. O=C(O)C1=C[C@@H](O)[C@@H](O)[C@H](O)C1
  A: -5.8%; B: -7.9%; C: -8.2%; D: -7.1%

Retrieved by structure from above, four records:
Short forms: A = GLS inhibitor; B = mIDH1 inhibitor; C = Tb PGK inh; D = Pin1 inh
2. Cn1c2nc(=O)[nH]c(=O)c-2cc2ccccc21
  A: -7.0%; B: 1.2%; C: -7.6%; D: -14.9%

5. CCOC(=O)c1ccc(NS(=O)(=O)CC)cc1
  A: 7.6%; B: 6.4%; C: -6.2%; D: 0.7%

3. O=C(O)C1=C[C@@H](O)[C@@H](O)[C@H](O)C1
  A: -5.8%; B: -7.9%; C: -8.2%; D: -7.1%

8. Cn1ncc(Br)c1C(=O)O
  A: 6.3%; B: 13.7%; C: -7.6%; D: 1.7%

Bioassay records (PubChem BioAssay)
